VDR inh – blocks the human vitamin D receptor. P11473. VDR-SRC2-3 peptide fluorescence polarization, 2 h. Potency, µM, inactives show max response, negative = inhibition, most hits filed as inhibitors. 400,000 tested, 0.93% active. AID 504847; active = well fitted inhibition curve with a large enough effect; inconclusive = small, poorly fitted or top-dose-only effect, or another doubt; inactive = no such curve, though single readings can be large or run the other way; also: series mostly up to about 120 µM
Target sequence (P11473 whole entry, looked up): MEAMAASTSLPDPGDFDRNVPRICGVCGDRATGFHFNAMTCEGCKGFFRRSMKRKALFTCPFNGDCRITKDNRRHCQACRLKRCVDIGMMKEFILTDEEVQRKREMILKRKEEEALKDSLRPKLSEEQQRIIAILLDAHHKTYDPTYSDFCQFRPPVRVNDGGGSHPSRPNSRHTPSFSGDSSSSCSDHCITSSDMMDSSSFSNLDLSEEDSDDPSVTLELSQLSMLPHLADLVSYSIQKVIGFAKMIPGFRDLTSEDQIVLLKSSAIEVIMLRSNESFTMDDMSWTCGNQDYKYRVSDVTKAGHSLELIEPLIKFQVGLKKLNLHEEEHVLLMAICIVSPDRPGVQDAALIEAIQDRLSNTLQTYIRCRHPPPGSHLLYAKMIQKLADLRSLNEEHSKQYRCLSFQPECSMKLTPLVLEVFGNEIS
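FP read-out; VDR + SRC2-3 coactivator peptide; 23 nl compound by pintool; 2 h RT incubation; reagents held at 4 deg C, protected from light.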
* marks the source's active call; other numbers are inactive results; ? = inconclusive; & = joins results of further samples; [ ] = dose if it differs, or a comment. % is scaled to controls: 0 for no effect and ±100 for the full control effect; potency is read from the fitted curve at half-maximal effect.

VDR inh | Structure
-12.8% | COc1ccccc1Cn1c(=S)[nH]c2cc(C(=O)NCC3CCCO3)ccc2c1=O (stereo not drawn)
-5.9% | CCNC(=S)NNC(=O)CCn1c2ccccc2c2ccccc21
-18.5% | COc1ccc(NC(=O)Nc2cccs2)cn1
3.8% | COc1ccc(N2C(=O)CCC(C(=O)NCc3ccccn3)C2c2ccc(F)cc2)cc1 (stereo not drawn)
-2.7% | C[C@@H](NC(=O)c1ncn(Cc2ccccc2)c1C(=O)N[C@H](C)c1ccccc1)c1ccccc1
-6.6% | CN(C(=O)c1cccc(NC(=O)Cc2ccc(NC(=O)C3CCCN(C(=O)CCc4ccccc4)C3)cc2)c1)C1CCC1 (stereo not drawn)
4.5% | CC(C)N1CCN(Cc2ccc(C#CC(C)(C)O)s2)CC1CCO (stereo not drawn)
-11.9% | O=C(O)CN1C(=O)c2ccc(Oc3ccc4c(c3)C(=O)N(CC(=O)O)C4=O)cc2C1=O
-11.1% | Cc1cc(C(=O)Nc2ccc3c(c2)OCCO3)co1
-5.7% | c1ccc(-c2ccc(OCCOCCn3cncn3)cc2)cc1
-15.1% | O=C(O)c1ccccc1Nc1ccc(OC(F)F)cc1
17.8µM* | Cc1ccc(CN2C(=O)C(=O)c3cc(Br)cc(C)c32)cc1
-1.0% | CCOC(=O)c1ccccc1NC(=O)N(Cc1ccco1)C1CCN(C(C)=O)CC1
-24.3% | Cc1ccccc1-c1nc(CS(=O)(=O)CC(=O)NCc2ccc(F)cc2)c(C)o1
0.4% | CCOC(=O)c1c(C)[nH]c(C)c1S(=O)(=O)N1CCC(C(=O)NCc2ccc(OC)cc2)CC1
8.6% | O=C(NCCN1CCOCC1)c1cn(CCc2ccccc2)nn1
22.1% | O=C(Cc1ccccc1)N1CCN(C(=O)c2ccc([N+](=O)[O-])cc2)CC1
34.3%[activator] | c1cncc(CSc2ccc(-c3cccnc3)nn2)c1
8.5% | CCn1cc2nc(SCC(=O)Nc3ccc(C)cc3C)n(Cc3ccc(C)cc3)c(=O)c2n1
-22.6% | COc1ccc([C@H]2CC(=O)C=C(c3cccc(C(C)C)c3)C2)cc1OC
-5.6% | CC1=Nc2ccccc2N=C(NC(=O)/C=C/C(=O)O)C1c1ccccc1 (stereo not drawn)
-13.0% | CC(C)(C)C(=O)Nc1nnc(SCc2cccc(F)c2)s1
44.7µM* | O=C(O)c1ccc2[nH]c3c(c2c1)CSCC3
3.8% | CCN(CC(=O)Nc1cc(Cl)ccc1C)C(=O)C1CCCCC1
3.1% | Cc1cccc(NC(=O)CCSc2nc(C)cc(C)n2)c1

The listing continues:
VDR inh | Structure
11.9% | CCCc1cnc2c(c1SCC(=O)Nc1c(C)cc(C)cc1C)c(=O)n(C)c(=O)n2C
-3.1% | CCCCn1c(SCC(=O)Nc2cc(C(F)(F)F)cc(C(F)(F)F)c2)nnc1C(CC)N(C)C (stereo not drawn)
-7.8% | CCOc1cccc2sc(Nc3nc4ccc(NC(C)=O)cc4s3)nc12
-16.6% | CCOc1ccc(CCNC(=O)COC(=O)COc2cc(C)cc(C)c2)cc1OCC
-7.9% | CCOC(=O)c1cccc(NC(=O)c2cnc3ccccc3n2)c1
-0.1% | COC(=O)c1sccc1S(=O)(=O)Nc1ccc(S(N)(=O)=O)cc1
2.9% | COc1ccc(CN2CCN(Cc3ccccc3)C(CCO)C2)cc1OC (stereo not drawn)
1.9% | N#Cc1cc2c(nc1SCC(=O)Nc1sc3c(c1C#N)CCC3)CCCC2
0.0% | CCc1cc2c3c(c1)C(C)CC(C)(C)N3C(=O)/C2=C1\SC(=O)NC1=O (stereo not drawn)
8.5% | COc1ccc(C(C)=O)cc1CSc1ccccn1
-12.8% | CN(C)N=C1c2cc(S(=O)(=O)N3CCOCC3)ccc2-c2ccc(S(=O)(=O)N3CCOCC3)cc21
10.9% | CC(Cc1ccccn1)NC(=O)c1ccc(OC2CCN(Cc3ccccn3)CC2)cc1 (stereo not drawn)
79.4µM* | O=c1cc(CO)oc(C(Nc2cccc([N+](=O)[O-])c2)c2ccccn2)c1O (stereo not drawn)
4.0% | O=C(Nc1nc2ccccc2c(=O)[nH]1)c1ccccc1SCc1ccccc1
2.1% | COc1ccc(C2=C3C(=O)OCC3Cc3ncn(Cc4ccccc4)c32)cc1 (stereo not drawn)
-15.7% | COC(=O)c1cc2oc(C)cc2n1Cc1c(C)cc(C)cc1C
6.3% | CC(C)(C)NCc1cc2ccccc2[nH]c1=O
5.7% | S=C(Nc1ccccc1Cl)NC1CCN(Cc2ccccc2)CC1
22.4% | CCOC(=O)c1cc(-c2cccs2)[nH]n1
-13.7% | CCN1CCN(Cc2ccc(NC(=O)Nc3ccc(OC)cc3)cc2)CC1
-8.1% | Cc1ccc(SCCNC(=O)CN2C(=O)c3ccccc3S2(=O)=O)cc1
-14.2% | O=[N+]([O-])c1cccc(/C=N/Nc2nc(N3CCOCC3)nc(N3CCOCC3)n2)c1
? | CCS(=O)(=O)c1ccc2oc(SCC(=O)NCCc3ccc(OC)cc3)nc2c1
-3.8% | COc1ccc(S(=O)(=O)N2CCN(C(c3ccccc3)c3ccccc3)CC2)cc1NC(C)=O
-6.7% | CN(C)c1ccc(/C=C2/C=C(c3ccc4c(c3)CCCC4)OC2=O)cc1

(next part)
VDR inh | Structure
-22.0% | O=c1oc2ccccc2c2c1nnn2CCO
5.9% | COc1cccc(CN(C)C(=O)COc2ccc(C(=O)c3ccc(Cl)cc3)cc2)c1OC
17.5% | O=C(CN1C(=O)NC2(CCCC2)C1=O)OCc1ccc(F)cc1
-4.9% | CCCC(=O)NC(c1ccc(OC)cc1)c1ccc2cccnc2c1O (stereo not drawn)
0.1% | O=C(NC1CCCCC1)N(CCO)Cc1cc2cc3c(cc2[nH]c1=O)OCCO3
-14.2% | COc1cccc(NC(=O)Nc2cccn(Cc3ccc(C)cc3)c2=O)c1
-26.9% | O=C(/C=C/c1ccco1)NC(=S)Nc1cccc(C(=O)O)c1
2.6% | CC1CCCN(C2(O)C(=O)Nc3ccc([N+](=O)[O-])cc32)C1 (stereo not drawn)
-19.4% | COc1ccc(-c2nnn(CC(=O)N(CC(=O)NC3CCCC3)Cc3ccco3)n2)cc1OC
13.0% | CCCC(=O)NC(C)C(c1cccs1)N1CCN(C)CC1 (stereo not drawn)
0.9% | COc1ccc(NS(=O)(=O)c2ccc(-c3coc(C)n3)cc2)c(OC)c1
4.8% | O=C(Nc1ccc(NC(=O)c2cccs2)cc1)c1ccc2ccccc2c1
-5.4% | CCCC(C(=O)NCCC(C)C)N(Cc1ccccc1)C(=O)c1snc(C(N)=O)c1N (stereo not drawn)
-3.6% | O=C(Nc1nc(COc2ccccc2)cs1)c1ccccc1F
-5.9% | COc1cccc(CNCc2ccco2)c1O
-14.5% | Cc1onc(-c2c(Cl)cccc2Cl)c1NC(=O)NC1CCSC1 (stereo not drawn)
-17.2% | CCc1cc2c(cc3c(=O)n(CC(=O)NCc4cccc(Cl)c4)nc(CC)n32)s1
-7.7% | COc1ccc(CCNC(=S)Nc2ccc(C(C)C)cc2)cc1
-0.1% | Cn1c(=O)n(CC(=O)O)c(=O)c2c1nc1n2CCCN1Cc1ccccc1
11.3% | COc1ccc(N2CCN(C(=O)COC(=O)[C@@H](NC(=O)c3c(F)cccc3F)C(C)C)CC2)cc1
-5.6% | O=C(NC1CCCCC1)c1ccc(S(=O)(=O)NCc2ccco2)cc1
0.9% | Cc1cc(Nc2ncc(Cl)cc2Cl)n(-c2ccccc2C)n1
-15.5% | COC1=C/C(=C/c2c(N)n3nc(CC(=O)N4CCCC4)sc3nc2=O)C=CC1=O
-8.3% | CC(=O)c1c(C)oc2ccc(N(C(=O)Oc3ccccc3)S(=O)(=O)c3ccc(Cl)cc3)cc12
6.0% | Cc1cccc(NC(=O)CSc2nc(N)cc(N)n2)c1

Next part:
VDR inh | Structure
-13.4% | O=C(NNc1cc(N2CCOCC2)nc(N2CCOCC2)n1)c1ccc(Cl)cc1Cl
-4.9% | CN(C)S(=O)(=O)Nc1cc(F)cc(F)c1
5.4% | CN(C)S(=O)(=O)c1ccc(C(=O)N2CCCC2c2nc3ccccc3s2)cc1 (stereo not drawn)
16.1% | C/C(CC(=O)Nc1ccccn1)=N\NC(=O)C(=O)Nc1ccccc1C
-9.8% | CNc1ncc(C(=O)c2ccc(-c3ccccc3)cc2)s1
-24.7% | CN(/N=C/c1cc(Cl)cc(Cl)c1O)C(=S)NC(C)(C)C
-1.1% | CN(CC(=O)Nc1ccc(F)cc1)C(=O)c1ccccc1Sc1ccccc1C#N
? | Cc1ccc(N=C2C(=O)Nc3ccc(Br)cc32)cc1
-12.6% | CC(C)c1ccc(Nc2c(-c3ccc(N(C)C)cc3)nc3cnccn23)cc1
-17.4%&10.3% | O=C(CSc1nc2c([nH]c3ccccc32)c(=O)n1-c1cccc(Cl)c1)N1CCOCC1
-1.6% | CCc1cc2cc3c(cc2nc1SCC(=O)Nc1c[nH]c(=O)[nH]c1=O)OCO3
13.9% | COc1ccc(C2Nc3cc(OC)ccc3-n3cccc32)cc1 (stereo not drawn)
-3.4% | CN(c1ccccc1C(=O)Nc1ccc(F)c(F)c1)S(C)(=O)=O
23.4% | C=CCOc1cccc(C2/C(=C(/O)c3ccc(Cl)cc3)C(=O)C(=O)N2CCN2CCOCC2)c1 (stereo not drawn)
-6.6% | COc1ccc2cc3c(N)c(C(=O)NCc4ccco4)sc3nc2c1
13.8% | OCC[C@@H]1C[C@H](O)[C@@H](O)[C@@]2(OCCCc3ccccc32)O1
2.3% | CCc1ccc(N2C(=O)CSC23C(=O)N(Cc2ccc(C)cc2)c2ccccc23)cc1 (stereo not drawn)
7.3% | COc1cccc(CNC(=O)C2CCCN(S(=O)(=O)c3ccc4c(ccn4C)c3)C2)c1OC (stereo not drawn)
-9.3% | CN(Cc1ccc(F)cc1)Cc1nc(-c2ccccc2)no1
44.7µM* | NC(CS)C(=O)O (stereo not drawn)
20.2% | Cc1noc(/C=C/c2ccco2)c1S(=O)(=O)N1CCC(C(=O)N2CCc3ccccc3C2)CC1
-1.6% | Cn1c(=O)n(-c2cccc(Cl)c2)c(=O)n1C
12.8% | CN(Cc1ccccc1)C(=O)CCC1CCN(C(=O)c2ccccc2C(F)(F)F)CC1
15.5% | O=C(Nc1ccc(F)cc1Cl)c1ccc2c(=O)n3c(nc2c1)CCCCC3
0.2% | O=C(Oc1ccc(Nc2ncnc3ccccc23)cc1)c1cccnc1

The results go on:
VDR inh | Structure
6.3% | CCOc1ccc(S(=O)(=O)N(CC)CC(=O)NCc2cccnc2)cc1C
-9.5% | CCn1ccnc1CN1CCc2c([nH]c3ccccc23)C1CC(C)C (stereo not drawn)
1.2% | COc1cc2c(cc1OC)CN(CC(=O)Nc1ccc(F)cc1)CC2
-10.7% | O=C(NCCc1ccccc1)C1CCN(S(=O)(=O)c2cccnc2)CC1
-18.7% | COCC1CCCN(Cc2cn(-c3ccccc3F)nc2-c2cc(C)sc2C)C1 (stereo not drawn)
16.9% | Cc1ccc(S(=O)(=O)N(C)C)cc1NC(=S)NNC(=O)C(N)=O
50.1µM* | COc1cc(C(=O)NS(=O)(=O)c2ccccc2C)ccc1Cc1cn(C)c2ccc(NC(=O)OC3CCCC3)cc12
8.0% | CCNc1nc(Cl)nc(-c2cn(-c3ccccc3)c3ccccc23)n1
-13.1% | O=C(CCCCN1CCCCC1)c1ccccc1
9.8% | O=C(N/N=C/c1ccc(OC(=O)c2ccccc2Cl)cc1)c1ccc(O)cc1
-26.2% | Cc1c(C(=O)N2CCCC2)oc2c1-c1[nH]ncc1CC2
-3.0% | CCC(=O)c1c[nH]c(C(=O)NCc2ccco2)c1
3.1% | CCCc1ncc(C(O)c2ccc(OC)cc2)n1C (stereo not drawn)
-16.0% | O=C(CN1CCCCC1)NNc1nc(-c2ccccc2)c2cc(Cl)ccc2n1
8.1% | O=C(Nc1ccccc1C(=O)O)c1cccc(NC(=O)c2ccccc2Br)c1
-12.2% | CC1CCN(CCNC(=S)Nc2ccc(Cl)cc2)CC1
-26.9% | CSc1ncc(Cl)c(C(=O)Nc2c(C)cccc2C)n1
5.7% | COCC(=O)NC1CCN(C(=O)NCc2ccccc2)CC1
13.9% | NC(=O)CNC(=O)c1cccc(Cl)c1
-0.1% | Cc1ccc(CNC(=O)c2ccc(NC(=O)c3nsc4ccccc34)cc2)cc1
0.2% | CCC(=O)N1CCc2cc(S(=O)(=O)NCCC(=O)Nc3ccccc3C)ccc21
25.5% | C=C(C)c1cccc(C(C)(C)NC(=O)Nc2ccc(OC)cc2)c1
3.0% | CCOC(=O)c1cc(-c2ccc(C#N)cc2)nc2c1c(C)nn2CCC#N
8.6% | N#Cc1cnc2cc(-c3ccccc3)nn2c1N
4.6% | O=C(Nc1ccc2nc(C3CC3)n(Cc3ccccc3)c(=O)c2c1)C1CC1
17.8µM* | Cc1ccc(OCC(=O)Nc2cc(C(=O)O)cc(C(=O)O)c2)cc1C
-11.5% | CCc1cc2c(=O)n(Cc3ccco3)c(SCC(=O)NC3CCS(=O)(=O)C3)nc2s1 (stereo not drawn)
6.1% | CCOC(=O)c1nc2c(ccc3ccccc32)cc1C

Only part of the results is shown. The share of hits here may be higher or lower than overall.
